GIRK2 activ: activators of human GIRK2 potassium channels. HEK293-GIRK2 thallium flux, Thallos fluorescence. calls only for hits at 25 µM. actives 0.05% (n = 63,000);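 active = among the strongest 0.2% of first-round signals and kept after retests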;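 also: first round at about 10 µM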
Target sequence (P48051 whole entry, looked up): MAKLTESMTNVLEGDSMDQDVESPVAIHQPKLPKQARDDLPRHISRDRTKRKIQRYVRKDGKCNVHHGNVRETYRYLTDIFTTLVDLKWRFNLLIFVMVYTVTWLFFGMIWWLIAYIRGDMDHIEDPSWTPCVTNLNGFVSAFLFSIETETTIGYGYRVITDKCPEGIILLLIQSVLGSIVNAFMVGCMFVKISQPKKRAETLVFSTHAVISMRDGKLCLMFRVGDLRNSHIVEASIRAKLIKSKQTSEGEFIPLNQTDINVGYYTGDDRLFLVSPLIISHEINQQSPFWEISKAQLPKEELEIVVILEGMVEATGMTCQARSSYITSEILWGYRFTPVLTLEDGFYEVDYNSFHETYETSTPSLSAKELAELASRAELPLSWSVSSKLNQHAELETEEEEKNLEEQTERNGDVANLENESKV
Calls only; i = inactive. An excerpt; count on the stated rates, not on these rows.

GIRK2 activ | Structure
i | CC1(C)OCC2(CO1)CN(C(=O)c1cc(-c3ccc(F)cc3)n[nH]1)C2
i | COC(=O)N1CCC(CNC(=O)NCc2ccc(Cl)cc2)CC1
i | O=C(CSc1cc(NCc2ccc(Cl)cc2)ncn1)NCc1ccc(F)cc1
i | COc1ccc(-c2nc(CN(c3ccccc3OC)S(=O)(=O)c3ccccc3)c(C)o2)cc1
i | C=C1C(=O)O[C@@H]2[C@H]3C(C)=CC[C@H]3C(=C)C[C@@H](OC(=O)/C(=C/CO)CO)[C@@H]12
i | Nc1c(C(=O)OCC2CCCO2)c2nc3ccccc3nc2n1-c1ccc2c(c1)OCCO2 (centres undefined)
i | COCCNC(=O)C(=O)c1cn(CC(=O)N2CCOCC2)c2ccccc12
i | CCC(=O)Nc1ccc(-n2nnc(C(=O)NCCOC)n2)cc1
i | CC(C)=CCc1cc2c(c(CC=C(C)C)c1O)OCC1c3ccc(O)cc3OC21 (centres undefined)
i | CC(C)c1cc(=O)[nH]c(-n2nc(-c3cccs3)cc2NC(=O)c2ccc([N+](=O)[O-])o2)n1
i | O=C(CCSc1ccccc1)NC1CCCC(OC(=O)Nc2ccccc2)C1 (centres undefined)
i | O=c1[nH]c(SCc2nc(-c3cccs3)no2)nc2c(-c3ccccc3)c[nH]c12
i | COc1ccc(NC(=O)Cn2ccn(-c3ccccc3)c(=O)c2=O)cc1OC
i | COc1ccc(C(=O)NCCS(=O)(=O)N2CCCCC2)cc1
i | CCOc1ccc(NC(=O)CN2CCc3[nH]c4ccccc4c(=O)c3C2)cc1
i | COc1cc(NC(=O)Nc2cccs2)ncn1
i | COC(=O)C1CCN(C(=O)c2cc3ccccc3oc2=O)CC1
i | COc1ccc(Cl)cc1NC(=O)CSc1ncnc2nc(C)ncc12
i | CCOC(=O)c1c(NC(=O)C2CCN(S(=O)(=O)c3ccc(F)cc3)CC2)sc2c1CCCC2
i | COc1ccccc1-c1nnc(C2CCN(S(=O)(=O)c3ccc(F)cc3)CC2)s1
i | Cc1ccc2nc3c(cc(C(=O)NCc4ccccc4)n3Cc3ccccc3)c(=O)n2c1
i | COC(=O)N1CCC(c2ccc(OC)cc2)C1 (centres undefined)
i | COc1ccc(OC)c(-c2cc(C(=O)N(Cc3ccccn3)Cc3ccco3)n(C)n2)c1
i | O=C(COc1ccccc1)N1CCC(Cn2cnc3ccccc32)CC1
i | Cc1noc(-c2cccnc2N2CCC(NC(=O)c3ccc(F)c(F)c3)CC2)n1
i | Cc1cn2c3c(=O)[nH]c(=O)n(C)c3nc2n1CCCNc1ccccc1F
i | O=C(NCC1CCC(c2nc3ccccc3[nH]2)CC1)c1cnc2ccccc2n1 (centres undefined)
i | Cc1nc(C)n(CCC(=O)Nc2cccnc2)n1
i | C=CCOCC(O)Cn1c(N2CCOCC2)nc2c1c(=O)[nH]c(=O)n2C (centres undefined)
i | CCCn1c(=O)c2sccc2n2c(CCC(=O)N3CC=C(c4ccccc4)CC3)nnc12
i | CCOc1ccc(-c2noc(C3CCCN(S(=O)(=O)c4ccc(C)cc4)C3)n2)cc1 (centres undefined)
i | O=C(NCc1cc(-c2cccs2)n(C2CCCC2)n1)Nc1cccs1
i | C=C(C)COc1ccc(-c2nc(N)ncc2Oc2ccc(OC)cc2)c(O)c1
i | CCOc1ccc(-n2c(-c3ccc(F)cc3)cn3c4c(=O)[nH]c(=O)n(C)c4nc23)cc1
i | Cc1noc(CNC(=O)c2ccc(=O)n(C)n2)n1
i | COCCn1nnn(-c2ccc(NC(=O)c3nc4ccccc4s3)cc2)c1=O
i | CC(=O)C(C)n1c(=O)c2c(nc3n2CC(C)CN3C2CCCCC2)n(C)c1=O (centres undefined)
i | COC(=O)c1ccc(N/C=C(\C#N)c2nc(-c3cccs3)cs2)cc1
i | Cn1c(SCC(=O)Nc2ccccc2Br)nc2c(-c3ccccc3)c[nH]c2c1=O
i | O=C(OCc1ccccc1)c1cc2cc([N+](=O)[O-])ccc2oc1=O
i | O=C(Cn1nc2nc(Nc3ccc(F)cc3)ccn2c1=O)NCC1CCCO1 (centres undefined)
i | Cc1c(Cl)cccc1S(=O)(=O)NCCc1nc(-c2ccco2)cn1C
i | COc1cc2ncn(-c3cc(OCc4ccccc4C(F)(F)F)c(C(C)=O)s3)c2cc1OC
i | COC(=O)c1ccc(S(=O)(=O)NCc2ccc(C(=O)c3cccs3)s2)cc1
i | O=C(NCC(F)(F)F)C1CCN(C(=O)c2cc(-c3ccco3)[nH]n2)CC1
i | CC(C)=CCc1c(O)cc(O)c2c1O[C@@H](c1ccc(O)cc1)[C@H](O)C2=O
i | Cc1cccc(C(=O)N2CCCC(c3nnc(-c4ccc5c(c4)OCO5)o3)C2)c1 (centres undefined)
i | CCN(c1ccccc1)S(=O)(=O)c1c(-c2ccc(C)cc2)csc1C(=O)OC
i | O=C(c1csc(-n2cccc2)n1)N1CCN(c2ccccc2O)CC1
i | CC1CCN(C(=O)C(=O)Nc2c3c(nn2-c2ccc(F)cc2)CSC3)CC1
i | Cc1ccc(-n2ccc(=O)c(-c3nc(-c4ccccc4Br)no3)n2)cc1C
i | Cc1cc(C)c(C(=O)Nc2ccc3c(c2)N(S(=O)(=O)c2ccc(F)cc2)CCC3)c(C)c1
i | COc1ccccc1N1CCN(C(CNS(=O)(=O)c2cc(F)ccc2F)c2cccnc2)CC1 (centres undefined)
i | CCCCCNC(=O)C1CCC(Cn2c(=O)c3sccc3n(CC(=O)NC(C)C)c2=O)CC1 (centres undefined)
i | Cc1cc(C(=O)Nc2nc3c(s2)CN(C(=O)C2(c4ccccc4)CCOCC2)CC3)no1
i | CC1CNc2c(cccc2S(=O)(=O)N[C@@H](CCCN=C(N)N)C(=O)N2CC[C@@H](C)C[C@@H]2C(=O)O)C1 (some centres undefined)
i | COc1ccc(NC(=O)CSc2nccn3nc(-c4ccc(F)cc4)cc23)c(OC)c1
i | COc1ccc(/C=C2\SC(=S)N(NC(=O)c3cccc([N+](=O)[O-])c3)C2=O)cc1OC
i | CCCCOc1ccc(-c2cc3c(=O)n(Cc4nc(-c5ccccc5OC)no4)ccn3n2)cc1
i | COc1ccc(CCC(=O)N2CCN(Cc3nnnn3-c3ccc(F)cc3)CC2)cc1

Later entries.
GIRK2 activ | Structure
i | O=c1[nH]c(=S)c2c(n1Cc1ccc3c(c1)OCO3)CCC2
i | Cc1cc(NC(=O)C(=O)NCCc2ccoc2)no1
i | CC(C)(C)NC(=O)N1CCC(CNC(=O)C2(c3ccc(F)cc3)CC2)CC1
i | COc1cccc(CSc2nc(CC(=O)Nc3ccc(OC)c(OC)c3)cc(=O)[nH]2)c1
i | CCN1C(=O)C2(SC(NC(C)=O)=NN2C(C)=O)c2cccc(C)c21 (centres undefined)
i | CCN(CC)c1ccc(-c2noc(CN3CCSCC3)n2)cn1
i | Cc1cc(C)n(CCN2CCN(C(=O)Cn3ccc4ccccc43)CC2)n1
i | CCc1ccccc1NC(=O)Cn1cccc(S(=O)(=O)N2CCC(C)CC2)c1=O
i | Cc1nn(C2CCS(=O)(=O)C2)c(C)c1N1CCN(Cc2ccccc2Cl)CC1 (centres undefined)
i | O=C(NCC1CCN(Cc2ccsc2)CC1)c1ccccc1C(F)(F)F
i | CCOC(=O)N1CCc2c(sc(NC(=O)CC)c2-c2nc3ccccc3s2)C1
i | Cc1c(C)n2c3c(=O)n(CCN4CCOCC4)c(=O)n(C)c3nc2n1-c1cccc(Cl)c1
i | N#Cc1nc(-c2ccc(Cl)cc2Cl)oc1N1CCN(C(=O)c2ccccc2)CC1
i | CCOc1ccccc1NC(=O)Nc1cc(N2CCN(c3ccccc3)CC2)ncn1
i | O=C(CCc1csc(NC(=O)c2ccc(F)cc2)n1)NCc1cccs1
i | COC(=O)c1ccc(NC(=O)Cn2cccc(S(=O)(=O)N3CCCCC3)c2=O)cc1
i | O=C(c1cc(-c2ccccc2)n[nH]1)N1CCN(Cc2nc3ccccc3[nH]2)CC1
i | O=C(NCCN1CCN(C(=O)NC(c2ccccc2)c2ccccc2)CC1)c1ccsc1
i | COc1ccc(C)cc1N1CCCn2c1nc1c2c(=O)n(C)c(=O)n1C
i | Cc1nc(NCCNS(=O)(=O)c2ccc3cccc4c3c2CC4)cc(N(C)C)n1
i | O=C(c1cc2cc([N+](=O)[O-])ccc2oc1=O)N1CCN(c2ccccc2F)CC1
i | O=C(NCC(=O)N1CCOCC1)c1ccc(=O)[nH]c1
i | COc1ccc(C=O)cc1Cn1c(=O)n(CCCCC(=O)NCCC(C)C)c(=O)c2ccccc21
i | CCOC(=O)Cn1c(=O)c2c(nc3n(-c4ccccc4OCC)c(C)c(C)n23)n(C)c1=O
i | CSc1ccc(CC(=O)N(Cc2ccncc2)c2nc3c(C)cccc3s2)cc1
i | COc1cc2c(c(O)c1OC)c(=O)c1cccc(O)c1n2C
i | CC(C)CCn1c(=O)c2ccc(C(=O)NC3CCCCC3)cc2n2c(=O)n(C)nc12
i | COc1ccccc1C(=O)NC1CCN(C(=O)c2cn(-c3cccc(F)c3)nn2)CC1
i | Cc1csc(-c2nnc(NC(=O)C3c4ccccc4Oc4ccccc43)o2)c1
i | COc1cccc2c(SCC(=O)NCc3ccc(F)cc3)nccc12

Given field by field: 4 of the compounds above
O=C(COc1ccccc1)N1CCC(Cn2cnc3ccccc32)CC1
  GIRK2 activ: i

Cc1noc(-c2cccnc2N2CCC(NC(=O)c3ccc(F)c(F)c3)CC2)n1
  GIRK2 activ: i

Cc1cn2c3c(=O)[nH]c(=O)n(C)c3nc2n1CCCNc1ccccc1F
  GIRK2 activ: i

O=C(NCC1CCC(c2nc3ccccc3[nH]2)CC1)c1cnc2ccccc2n1 (centres undefined)
  GIRK2 activ: i

Next part:
GIRK2 activ | Structure
i | Cc1ccc(-n2nnc3c(N4CCN(C(=O)C5CCCCC5)CC4)ncnc32)cc1
i | Cc1nc2c(c(=O)c3ccccc3n2C)c(=O)n1-c1ccc(F)cc1
i | O=C(NCc1nn(C2CCCC2)c(=O)c2ccccc12)c1ccccc1Cl
i | O=C(/C=C\c1ccccc1)N1CCCC(c2nnc(-c3ccc4c(c3)OCO4)o2)C1 (centres undefined)
i | COc1ccc(S(=O)(=O)NCCS(=O)(=O)N2CCN(c3ccccc3)CC2)cc1
i | CCOCC(=O)NCC1CCN(Cc2cccs2)CC1
i | O=C(NCc1cccs1)NC1CC(=O)N(C2CC2)C1 (centres undefined)
i | Cn1c(=O)n(CC(=O)O)c(=O)c2c1nc1n2CCCN1c1ccc(F)cc1
i | Cc1ccc2nc(NC(=O)Cn3c(=O)oc4ccc(Cl)cc43)sc2c1
i | C#CC(C)(CC)OCC(O)CN1CCC(C)CC1 (centres undefined)
i | C[C@H](CS(C)(=O)=O)Nc1ncc2cc(Oc3ccc(F)cc3F)c(=O)n(C)c2n1
i | Cc1ccc(NC(=O)Nc2ccccc2Cl)cc1N1CCCC1=O
i | CCOc1ccccc1S(=O)(=O)N1CCN(CC(F)(F)F)CC1
i | CCOCCn1c(=O)c2c(nc3n2CCCN3c2ccc(C)cc2C)n(C)c1=O
i | COc1cccc2sc(N(CCCN(C)C)C(=O)c3cc(C)n(C)n3)nc12
i | CCOCC(=O)N(Cc1ccoc1)Cc1cccs1
i | Cc1noc(Cn2c(=O)c3ccccc3n(CC(=O)Nc3cccc(C)c3C)c2=O)n1
i | CCCCCCCOC(=O)C(C#N)c1nc2ccccc2nc1N1CCN(C)CC1 (centres undefined)
i | Cc1cc(C)n(-c2ccc(=O)n(C(C)C(=O)NCCc3csc(-c4ccccc4)n3)n2)n1 (centres undefined)
i | Cc1cccc(CC(=O)NCC2CCN(C(C)C)CC2)c1
i | Cn1c(=O)[nH]c(=O)c2c1nc(SCc1ccccc1Cl)n2CCOc1ccccc1
i | CC1=C[C@@H](C)C[C@@H](C)[C@@H](Cc2cnco2)OC(=O)/C(C)=C/[C@@H](C)C[C@@H](C)[C@@H](Cc2cnco2)OC1=O
i | CCCCNC(=O)c1ccc(-n2ccnc2SCC(=O)Nc2cccc(OC)c2)cc1
i | O=C(CN1CCN(Cc2nc(-c3ccco3)cs2)CC1)NCc1ccccc1Cl
i | O=C(Cc1c[nH]c2ccccc12)NC1CC(=O)N(C2CC2)C1 (centres undefined)
i | COc1ccc(CC(=O)Nc2ccc(Cn3cnc(C(=O)Nc4cccc(SC)c4)c3)cc2)cc1
i | COc1ccc2nc(Cl)c(C=Nc3c(C)n(C)n(-c4ccccc4)c3=O)cc2c1
i | CN1NC(c2cccs2)C2C(=O)N(Cc3ccccc3)C(=O)C21 (centres undefined)
i | O=C(NCCc1cccs1)c1nnn(-c2ccc(Cl)cc2)c1-c1cccnc1
i | COc1ccc(-c2cc3c(=O)[nH]nc(SCC(=O)c4ccc5c(c4)OCO5)n3n2)cc1OC
i | CCOc1ccc(-c2cc(C(=O)N3CCC(NC(=O)c4ccccc4C)CC3)[nH]n2)cc1
i | COc1ccccc1-c1nnc(C2CCN(S(C)(=O)=O)CC2)s1
i | Cn1cc(C2=C(c3cccc([N+](=O)[O-])c3)C(=O)NC2=O)c2ccccc21

Among those listed so far, 13 have two or more sulfur atoms.
GIRK2 activ | Structure
i | O=c1[nH]c(SCc2nc(-c3cccs3)no2)nc2c(-c3ccccc3)c[nH]c12
i | CCOC(=O)c1c(NC(=O)C2CCN(S(=O)(=O)c3ccc(F)cc3)CC2)sc2c1CCCC2
i | COc1ccccc1-c1nnc(C2CCN(S(=O)(=O)c3ccc(F)cc3)CC2)s1
i | O=C(NCc1cc(-c2cccs2)n(C2CCCC2)n1)Nc1cccs1
i | COC(=O)c1ccc(N/C=C(\C#N)c2nc(-c3cccs3)cs2)cc1
i | COC(=O)c1ccc(S(=O)(=O)NCc2ccc(C(=O)c3cccs3)s2)cc1
i | CCN(c1ccccc1)S(=O)(=O)c1c(-c2ccc(C)cc2)csc1C(=O)OC
i | COc1ccc(/C=C2\SC(=S)N(NC(=O)c3cccc([N+](=O)[O-])c3)C2=O)cc1OC
i | CCOC(=O)N1CCc2c(sc(NC(=O)CC)c2-c2nc3ccccc3s2)C1
i | O=C(CCc1csc(NC(=O)c2ccc(F)cc2)n1)NCc1cccs1
i | CSc1ccc(CC(=O)N(Cc2ccncc2)c2nc3c(C)cccc3s2)cc1
i | COc1ccc(S(=O)(=O)NCCS(=O)(=O)N2CCN(c3ccccc3)CC2)cc1
i | COc1ccccc1-c1nnc(C2CCN(S(C)(=O)=O)CC2)s1

High-throughput results as filed in PubChem.
